# High-throughput results as filed in PubChem BioAssay.
# VACV mCherry inh – qHTS for Stage-Specific Inhibitors of Vaccinia Orthopoxvirus: mCherry Reporter Primary qHTS; Potency, µM (titrated, usually from 36.5 µM), for inactives: at the top dose activity change, negative = inhibition, most hits filed as inhibitors; 0.63% of 310,000 active; Vaccinia virus mCherry reporter infection, fluorescence; about a quarter of the inactives have no number; active = well fitted inhibition curve with a large enough effect; inconclusive = small, poorly fitted or top-dose-only effect; inactive = no such curve, though single readings can be large or run the other way; tested in A549 cells; further: nearly all actives have a fitted effect of over 35% in size; inactives centre near -10
# VACV Venus inh – qHTS for Stage-Specific Inhibitors of Vaccinia Orthopoxvirus: Venus Reporter Primary qHTS; Vaccinia virus Venus reporter expression, fluorescence; Potency, µM (top dose mostly 36.5 µM), without a hit: at the top dose activity change, negative = inhibition, most hits filed as inhibitors; 0.46% of 330,000 active; active means well fitted inhibition curve with a large enough effect; inconclusive means small, poorly fitted or top-dose-only effect; inactive means no such curve, though single readings can be large or run the other way; tested in A549 cells; further: nearly all actives have a fitted effect of over 30% in size; inactives centre near -10
# Active calls of the source: *; i = inactive; ? = inconclusive; / = no result given; & = joins results of further samples; [ ] = dose if it differs, or a comment. On the % scale 0 is the no-effect control and ±100 the full control effect; potency means the concentration at half of the fitted maximal effect.
SMILES,VACV mCherry inh,VACV Venus inh
Cc1c(Cl)cccc1NC(=O)CCS(=O)(=O)c1ccc2c(c1)CC(C)N2C(=O)C1CC1 (stereo not drawn),-30%,-17%
COc1ccc(OC)c(NC(=O)CSC2=Nc3ccccc3C3=NC(CC(=O)NCc4ccco4)C(=O)N23)c1 (stereo not drawn),i,-14%
Fc1ccc(Oc2nc(-c3ccccn3)nc3ccccc23)cc1,?,?
CC(C)n1c(-c2ccc(N(C)C)cc2)nc2ccccc21,-17%,?
O=C(CCC(=O)c1cccs1)NNC(=O)c1cccc(Cl)c1,-3%,0%
c1ccc(CSc2nnc(-c3ccco3)o2)cc1,-6%[7.34 µM],-1%[7.34 µM]
CCOc1cc2c(cc1C(C)(C)C)NC(=O)CS2,/,-15%
O=C(O/N=C\c1ccc(N2CCOCC2)c([N+](=O)[O-])c1)c1ccccc1Cl,i,-13%
CCS(=O)(=O)N1CCC(C(=O)NCCCN2CCC(Cc3ccccc3)CC2)CC1,-13%,3%
O=C(Nc1cccc(C(=O)OCc2cc(=O)n3nc(C4CC4)sc3n2)c1)c1ccccc1,i,7%
CN(C)S(=O)(=O)c1cccc(C(=O)NCCOC(=O)c2cc(F)c(F)cc2Cl)c1,-12%,-10%
O=C1NC(=O)/C(=C\c2ccccc2OCc2ccccc2)S1,-23%,-11%
O=C(CN1CCN(C(=O)N2CCOCC2)CC1)Nc1cc(Cl)ccc1Cl,6%,-4%
Cc1nc(-c2ccccc2)sc1C(=O)CSc1ccc(F)cc1,/,-2%
COCCNc1c2c(nc3ccccc13)CCC2,5%,-5%
Cc1cccc(N=C/C(C(=O)C(F)(F)F)=C(\O)c2ccco2)c1,-1%,-19%
O=C(Cn1c2ccc(F)cc2c2nc3n(c(=O)c21)CCS3)NCC1CCCO1 (stereo not drawn),-7%,-3%
Cc1noc(C)c1-c1cncnc1NC1CC1,i,0%
Fc1ccc(-c2cnc(-c3cccs3)o2)cc1,-21%,-14%
Cc1ccc(-n2c(SCC(N)=O)nc3c(c2=O)C2(CCCC2)Cc2ccccc2-3)cc1,i,-24%
Cc1c(NC(=O)Nc2ccc(F)c(Cl)c2)c(=O)n(-c2ccccc2)n1C,-10%,-12%
Cc1cc(C(=O)COC(=O)CCCN2C(=O)c3ccccc3C2=O)c(C)n1C,-19%,-2%
CCCNC(=O)NS(=O)(=O)c1cnccc1Sc1ccc(Cl)cc1,/,-26%
CC(Oc1ccccc1)c1nnc(N)s1 (stereo not drawn),-4%,-16%
Cc1cc(NC(=O)c2cc3ccccc3o2)no1,?,-5%
COc1ccc(C2c3c(n(C)c4ccccc34)C(=O)N2CC(=O)Nc2ccc(C)cc2Cl)cc1 (stereo not drawn),-13%,-14%
COc1ccc(CC(=O)NC(=S)Nc2cccc(C)c2)cc1,i,-5%
CCc1ccccc1NC(=O)c1cnn2c(C(F)(F)F)cc(-c3ccc(OC)c(OC)c3)nc12,-4%,-8%
CC(C)(C)NC(=O)CN1CCCN(C(=O)COc2ccc(Cl)c3ccccc23)CC1,?,-13%
COc1ccc(-c2ccccc2[C@H]2[C@@H]3C=CC[C@@H](C)[C@@H]3C(=O)N2Cc2ccccc2)cc1,i,-16%
O=C(Nc1ccc(F)cc1)C(c1ccccc1)N1CCN(S(=O)(=O)c2c(F)cccc2F)CC1 (stereo not drawn),-20%,-16%
CC(Sc1nnc(-c2ccccc2)n1C)C(=O)NCc1ccco1 (stereo not drawn),-9%,-15%
COc1ccc(OCC(=O)O/N=C(\N)Cc2cccs2)cc1,-6%,1%
Oc1ccc(-c2csc(Nc3ncccn3)n2)cc1O,?,-28%
COc1ccccc1-c1cc(C(=O)N2CCN(c3ccccc3)CC2)no1,-28%&-6%,-14%&7%
O=C(CN1C(=O)C(c2ccc(F)cc2)=NC12CCCCCC2)Nc1ccc(F)c(Cl)c1,i,-16%
CCCCNC(=S)NNC(=O)c1ccc(Br)o1,-26%,-6%
CCOC(=O)c1ccccc1NC(=O)C1COc2ccccc2O1 (stereo not drawn),/,-28%
COc1ccc(CCNC(=O)CN2C(=O)COc3ccc(S(=O)(=O)N4CCCC4)cc32)cc1OC,7%,3%
O=C(NCc1ccccc1)NC1(C(=O)N2CCN(c3ccccc3)CC2)CCCCC1,i,-2%

# Pulled by compound from the entries so far, seven records:
SMILES,VACV mCherry inh,VACV Venus inh
COc1ccc(CCNC(=O)CN2C(=O)COc3ccc(S(=O)(=O)N4CCCC4)cc32)cc1OC,7%,3%
COc1ccccc1-c1cc(C(=O)N2CCN(c3ccccc3)CC2)no1,-28%&-6%,-14%&7%
CCCCNC(=S)NNC(=O)c1ccc(Br)o1,-26%,-6%
O=C(CN1C(=O)C(c2ccc(F)cc2)=NC12CCCCCC2)Nc1ccc(F)c(Cl)c1,i,-16%
COc1ccc(OCC(=O)O/N=C(\N)Cc2cccs2)cc1,-6%,1%
O=C(NCc1ccccc1)NC1(C(=O)N2CCN(c3ccccc3)CC2)CCCCC1,i,-2%
CCOC(=O)c1ccccc1NC(=O)C1COc2ccccc2O1 (stereo not drawn),/,-28%

# (further entries)
SMILES,VACV mCherry inh,VACV Venus inh
COc1ccc(Nc2nnc(Cc3ccc(Cl)cc3)c(=O)[nH]2)c(OC)c1,i,-19%
O=C(CSc1nnc2c(n1)[nH]c1ccccc12)OCc1ccccc1,/,-19%
Cc1ccc(C)c(NC(=O)Cn2cc(C(=O)c3ccncc3)c(=O)c3cc(F)ccc32)c1,-11%[7.34 µM],-6%[7.34 µM]
CC1CN(S(=O)(=O)c2cc(C(=O)N(CCc3ccccc3)Cc3ccccc3)ccc2Cl)CC(C)O1 (stereo not drawn),-26%,-14%
NC(=S)N/N=C\c1ccccc1OCc1ccccc1,?,2.5µM*
CC(C)CC(=O)N1CCN(c2ccc([N+](=O)[O-])c(NCc3ccccc3)c2)CC1,?,?
O=C(CSc1nc(=O)n2ccccc2n1)Nc1ccc2c(c1)OCCO2,-6%,-14%
CCOc1ccc(CCN2C(=O)CCC2(C)C(=O)NC(C)CC)cc1OCC (stereo not drawn),-11%,-6%

# Among those listed so far, these contain two or more sulfur atoms.
SMILES,VACV mCherry inh,VACV Venus inh
Cc1nc(-c2ccccc2)sc1C(=O)CSc1ccc(F)cc1,/,-2%
CCCNC(=O)NS(=O)(=O)c1cnccc1Sc1ccc(Cl)cc1,/,-26%

# Additional compounds.
SMILES,VACV mCherry inh,VACV Venus inh
CC1OC(OCC2OC(Oc3c(-c4ccc(O)cc4)oc4cc(O)cc(O)c4c3=O)C(O)C(O)C2O)C(O)C(O)C1O (stereo not drawn),6%,3%
COc1ccc2nc(SCC(=O)Nc3nccs3)[nH]c2c1,i,-12%
CC(=O)NN=C(C)c1ccc(NC(=O)C2CC2)cc1,3%,-7%
CCOC(=O)c1c[nH]n(-c2ccc(C)cc2)c1=O,i,-13%
CCCCN(C(=O)NC(=O)Nc1cc(C)ccc1C)S(C)(=O)=O,-12%,-2%
COC(=O)c1ccc(C2Nc3c(C)cc(C)cc3C3C=CCC32)cc1 (stereo not drawn),-6%,-4%
CCn1c(SCC(=O)Nc2nc(C)c(C(=O)OC)s2)nnc1C(C)C,-5%,7%
Cc1ccc(CNC(=O)c2cccc(N3CCCS3(=O)=O)c2)cc1,-18%,-9%
CCC(c1nnnn1-c1c(C)cccc1C)N1CCN(CC)CC1 (stereo not drawn),-9%,-9%
CCNC(=O)NC(=O)CSc1nc2ccccc2n1CC(C)C,i,-16%
CC(O)C(O)C(O)C(O)C1NCCS1 (stereo not drawn),/,-8%
O=[N+]([O-])c1ccc(CN2CC(N3CCN(CC4CC4)CC3)CS2(=O)=O)cc1 (stereo not drawn),-9%,-7%
COc1ccc(O)c(CN2CCC3(CCC(CNC(=O)c4ccco4)O3)CC2)c1 (stereo not drawn),-22%,-11%
Cc1cc(C)nc(SCc2cn3cc(Cl)ccc3n2)n1,-12%,-1%
COc1ccc(C)c(S(=O)(=O)Nc2ccc(OCC(=O)O)cc2)c1,i,-6%
CCOC(=O)N1CCN(CC(O)COC2CC(C)CC(C)(C)C2)CC1 (stereo not drawn),/,?
COc1ccccc1CNC(=O)COC(=O)c1nc(Cl)ccc1Cl,-14%,-14%
COc1cccc(-c2c(C(=O)N/N=C/c3ccoc3)nnn2-c2nonc2N)c1,-5%,-7%
CCOC(=O)N1CCN(C(=O)CN(c2cccc(C)c2)S(=O)(=O)c2ccc(C)cc2)CC1,-3%,-14%
C=CCSc1nc2ccccc2c2nc(-c3ccccc3)nn12,/,1%
Cc1ccccc1OCc1nnc(SCc2cc(=O)c3ccc(C)c(C)c3[nH]2)n1C,-25%,-25%
COc1ccccc1Cc1c(-c2ccc(OC)c(OC)c2)nc2c(C)cc(Br)cn12,i,-14%
CCOC(=O)Cc1csc(NC(=O)c2cccc(N3C(=O)CCC3=O)c2)n1,-9%,-2%
CCc1cc2c(SCC(=O)c3ccc(C)cc3)ncnc2s1,-7%,2%
OCCCn1c(C2CCCN2c2nc(-c3ccc(Cl)cc3)cs2)nc2cc(C(F)(F)F)ccc21 (stereo not drawn),?,-21%
CC1CCN(c2c(NCC3CCC(C(=O)Nc4ccccn4)CC3)c(=O)c2=O)CC1 (stereo not drawn),i,-17%
O=C(NCCc1ccc(Cl)cc1)c1cccc(S(=O)(=O)N2CCCC2)c1,-11%,-14%
O=C(Cn1ccc2cc(S(=O)(=O)N3CCCCC3)ccc21)NCc1ccccc1F,?,-11%
Nc1nnc(CCCCCCCCCCc2nnc(N)s2)s1,-2%,5%
COC(=O)C[C@@H]1C=C[C@@H](NC(=O)NC2CCCC2)[C@@H](CO)O1,-1%,-18%
COc1cc(-c2noc(-c3nnn(-c4ccc(Cl)cc4)c3C)n2)cc(OC)c1OC,-3%,-4%
CCN(CC)Cc1c(O)ccc2c(=O)c(-c3ccccc3Cl)coc12,-5%,-14%
Cc1ccc(SCC(=O)OCC(=O)NCCc2ccc(S(N)(=O)=O)cc2)c(C)c1,-2%,-3%
CCc1ccc(NC(=O)COc2ccc(F)cc2C(=O)c2cnn(-c3ccccc3)c2)cc1,i,-11%
CCOCCOC(=O)c1ccc(-n2cnc(C)n2)nc1,-2%,-11%
COCC(=O)N(C)C[C@H]1Oc2ncc(Br)cc2C(=O)N([C@@H](C)CO)C[C@H]1C,-10%,-13%
Cc1cc(CN2CCCC(C(=O)Nc3ccc(-c4nc5ccccc5[nH]4)cc3)C2)n[nH]1 (stereo not drawn),-12%,-27%
Cc1cc(C)n2nc(SCc3cccc(F)c3)nc2n1,i,-10%
COc1ccc(-c2cc(CN3C(=O)c4ccccc4C3=O)on2)cc1,?,1%
COc1ccc(-c2nc3cc(C)ccn3c2NCC2CCCO2)cc1OC (stereo not drawn),i,-4%
O=C(O)CCCCCCCCCCC1CCC(O)C1O (stereo not drawn),i,15%
CCOC(=O)c1c(-c2ccc(C)o2)csc1NC(=O)CSc1nnnn1-c1ccccc1,-13%,-7%
C[N+](C)(C)CCOP(=O)([O-])OP(=O)(O)OCC1OC(n2ccc(N)nc2=O)C(O)C1O (stereo not drawn),-5%,-5%
CCOC(=O)c1ccc(N/C=C/C(=O)c2ccc(OC)c(OC)c2)cc1,0%,-15%
CCCNC(=O)C1(C)CCN1C(=O)Cc1ccc(C(C)(C)C)cc1 (stereo not drawn),49%[activator],-4%
O=c1cc(-c2ccco2)oc2c1ccc1ccccc12,-10%,-7%
NC(=O)CC(NC(=O)Cc1ccc(Br)cc1)c1ccc(NC2CCCC2)c([N+](=O)[O-])c1 (stereo not drawn),i,-29%
CCOC(=O)C1=C(C)N(CC)C(=S)NC1c1ccc(Cl)cc1 (stereo not drawn),-20%,-13%
COc1cc(OC)cc(OC(=O)C2CCN(S(=O)(=O)c3ccc(OC)c(OC)c3)CC2)c1,i,-11%
COc1ccc(NC(=O)c2cccc(S(=O)(=O)N3CCOCC3)c2)cc1,-3%,-7%
CCCC[n+]1c(-c2ccc(Cl)cc2Cl)csc1Nc1ccccc1,-11%,12%
Nn1c(SCc2ccccc2)nnc1-c1ccco1,-9%,-15%
O=C(CSCc1ccc([N+](=O)[O-])cc1)NC1CCCCCC1,i,-9%
CC(=O)c1cccc(NC(=O)Cn2c(=O)oc3cc(S(=O)(=O)N4CCCC4)ccc32)c1,-2%&-14%,-19%&-13%
COc1ccccc1[N+](=O)[O-],-11%,-11%
COc1ccccc1Nc1nc(-c2c(C)[nH]c3ccccc23)cs1,46%[activator],18%
COc1cc2c(-c3ccccc3C)nc3c(c(C)nn3-c3ccccc3)c2cc1OC,-16%,-3%
COc1ccc(NC(=O)Cn2nc(Cc3cccnc3)c3ccccc3c2=O)cc1OC,i,-2%
